# Compound activity deposited in PubChem by several laboratories.
# HSV replic up – enhancers of HSV replication in host cells, fold increase, host cell viability; actives 0.005% (n = 220,000); HSV replication augmentation in cells; AID 1956, 2009; maximum fold increase;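 active = peak rise of 1.5-fold or more in the series; tested in PC3 cells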;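 also: first round at 10 µM; read as green reporter fluorescence; hits show the peak of a series up to 25 µM; 1 = signal of infected wells without compound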
# GALR2 agonist – GALR2 receptor agonists, primary screen, cell-based. GALR2-expressing cells, agonist activation read-out. actives 0.48% (n = 140,000). activation, %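 (tested at 5 µM)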. Galanin receptor type 2 (Homo sapiens), O43603;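 active = above mean plus 3 SD of all compounds, about 5% in these data, not always enough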;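 also: 0% = vehicle buffer wells and 100% = reference agonist at full effect; tested in CHO reporter cells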
# Target sequence (O43603 whole entry, looked up): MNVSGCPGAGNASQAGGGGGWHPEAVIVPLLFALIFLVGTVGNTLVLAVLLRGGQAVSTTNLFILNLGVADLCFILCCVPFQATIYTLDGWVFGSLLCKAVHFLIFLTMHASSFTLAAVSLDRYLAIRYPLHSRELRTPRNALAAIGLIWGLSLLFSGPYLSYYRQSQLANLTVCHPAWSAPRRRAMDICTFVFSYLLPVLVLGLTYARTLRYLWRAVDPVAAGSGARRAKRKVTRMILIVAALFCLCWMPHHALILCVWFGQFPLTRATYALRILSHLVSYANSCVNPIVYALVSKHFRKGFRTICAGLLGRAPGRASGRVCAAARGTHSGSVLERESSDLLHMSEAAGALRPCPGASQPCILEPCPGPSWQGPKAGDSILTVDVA
# PKD1 kinase inh – inhibitors of human PKD1 kinase, biochemical, fluorescence polarization; PKD1 kinase fluorescence polarization assay; inhibition, %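 (about 10 µM by stock and volumes)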; actives 0.056% (n = 200,000);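 active = inhibition of 50% or more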;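 also: controls were vehicle for no effect and a reference inhibitor for full effect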
# RGS16-Gao – modulators of RGS16 binding to Galphao, primary screen, biochemical, human proteins, multiplexed bead flow cytometry; actives 0.38% (n = 220,000); binding response (% of control), % at 10 µM; AID 1441, 2008; bead-based flow cytometry RGS16-Galphao binding, fluorescence; actives lie on both sides; Regulator of G-protein signaling 16 (Homo sapiens) + Guanine nucleotide-binding protein …;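 active = below 25% or above 175%, edge rows of some plates excepted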;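 also: Galphao activated by GDP with aluminum fluoride before binding; 100% = wells without compound and 0% = beads without RGS; some results beyond the cut were filed as inactive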
# Target sequence (O15492 whole entry, looked up): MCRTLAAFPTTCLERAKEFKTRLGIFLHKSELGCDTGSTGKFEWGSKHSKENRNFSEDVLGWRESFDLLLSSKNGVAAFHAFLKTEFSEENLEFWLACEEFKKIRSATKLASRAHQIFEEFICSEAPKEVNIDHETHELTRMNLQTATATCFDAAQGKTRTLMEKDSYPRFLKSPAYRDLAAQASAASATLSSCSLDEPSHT
# Target sequence (P09471 whole entry, looked up): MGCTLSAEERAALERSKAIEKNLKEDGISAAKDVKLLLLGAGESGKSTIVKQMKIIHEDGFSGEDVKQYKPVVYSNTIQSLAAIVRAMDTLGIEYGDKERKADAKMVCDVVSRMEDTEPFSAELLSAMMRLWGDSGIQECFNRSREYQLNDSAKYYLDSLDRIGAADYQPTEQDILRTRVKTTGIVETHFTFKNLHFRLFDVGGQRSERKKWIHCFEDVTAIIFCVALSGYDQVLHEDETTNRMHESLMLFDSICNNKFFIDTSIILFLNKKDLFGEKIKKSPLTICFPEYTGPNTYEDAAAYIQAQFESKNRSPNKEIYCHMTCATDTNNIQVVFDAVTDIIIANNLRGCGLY
# Insulin prom inh – inhibitors of insulin promoter-driven GFP, primary screen, imaging, TRM-6 cells (human fetal islet line), eGFP reporter, cell count | reporter expression induced with tamoxifen | inhibition, % at 2 µM | actives 0.9% (n = 130,000);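 active = inhibition above the mean plus 3 SD, with well images judged a real hit on visual review, cut at about 60% in these data, passing the limit was not always enough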
# Insulin prom inh cell count – second read-out of Insulin prom inh, no call of its own (marks repeat the call); normalized cell count, %; measured here: cell count, toxicity; reference of the scale not given here;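 cells exposed to compound for 48 h; stained nuclei by imaging scaled within each plate; lower means fewer cells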
# HSV replic up primary fold – recorded beside HSV replic up, whose call it bears; fold increase; compound at 10 µM; measured here: primary screen fold increase 10 uM; tested in PC3 cells;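 GFP signal in the first replicate; 1 = infected wells without compound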
# An asterisk follows results filed as active; i = inactive; . = no result given; [ ] = another dose, or the depositor's remark.
SMILES	HSV replic up	HSV replic up primary fold	GALR2 agonist	PKD1 kinase inh	RGS16-Gao	Insulin prom inh	Insulin prom inh cell count
Cn1nc(C(=O)NC2CCCCCC2)ccc1=O	i	1.1	-1.6	-1	103	0	73
Cc1cc(Br)c(NC(=O)CCl)c(Br)c1	i	0.82	0.3	1	89	-3	41
Cc1cc(Br)c(NC(=O)COn2nnc3ccc(S(C)(=O)=O)cc32)c(Br)c1	i	1	.	1	114	14	81
Cc1ccccc1-c1nc(CS(=O)CC(=O)NCc2ccccc2)c(C)o1 (centres undefined)	i	0.81	-1.6	-12	103	.	.
COc1ccc(/C=N/NC(=O)c2[nH]ncc2Br)c(OC)c1	i	0.93	-4.8	-5	98	-25	108
O=C1NC2(CCCCCC2)Cc2ccccc21	i	1	-2.5	0	104	-10	99
NC(=O)c1sc2nc3c(cc2c1N)CCCCCC3	i	0.98	.	.	109	.	.
CCOC(=O)c1ccccc1NC(=O)Cn1cnc2c(oc3ccccc32)c1=O	i	0.98	-0.1	-5	102	0	120
Cn1cc([N+](=O)[O-])c(C(=O)NNC(=O)c2ccc([N+](=O)[O-])cc2Cl)n1	i	0.95	.	-2	104	.	.
Cc1cc(C)n(-c2cc(N3CCN(S(=O)(=O)c4ccc(Cl)cc4)CC3)ccc2[N+](=O)[O-])n1	i	0.9	0.2	11	101	-3	121
Cc1ccc(Cl)cc1N1CCN(C(=O)COc2ccc3c(c2)CCC3)CC1	i	0.88	-0.9	-12	108	.	.
COc1ccccc1NC(=O)c1nnn(Cc2ccccc2)c1NC(=O)C(F)(F)F	i	0.95	-0.6	-10	104	0	274
Cc1cc(/C=N\NC(=O)CC(=O)NC2CCCCC2)c(C)n1-c1ccc(Cl)cc1	i	0.99	-1.8	-12	100	.	.
CCN1CCc2nc(NC(=O)c3cc(F)c(F)cc3Cl)sc2C1	i	1	.	-2	105	24	147
COc1ccc2cc3cc(C(=O)NCc4cccnc4)oc3nc2c1	i	0.88	.	0	116	-25	63
O=C(NCc1ccccc1)c1ccc(COCC(F)(F)F)o1	i	0.89	-1.3	-12	100	-6	14
COc1ccc2c(c1)cc1n2CCN=C1NN	i	0.93	-0.3	-2	109	-26	107
O=C(NNC(=O)C1CCN(Cc2cccc(F)c2)CC1)c1cccc(Cl)c1	i	0.95	-2.3	2	106	-12	113
O=C(CSc1nc2ncc(Cl)cc2[nH]1)NCC(=O)Nc1ccc(F)c(F)c1F	i	1.1	.	.	99	.	.
Cc1noc(C)c1C(=O)N1CCN(C(=O)c2sc3cc(Cl)ccc3c2Cl)CC1	i	0.95	-3.5	-12	104	53	115
O=C(Nc1ncc2c(n1)-c1ccccc1OC2)c1ccc(Cl)cc1	i	1	-1.7	-6	104	15	128
CCOc1ccc(S(=O)(=O)N2CCc3cc(OC)c(OC)cc3C2)cc1	i	0.95	-2.3	-8	103	-21	97
Cn1c(SCC(=O)Nc2ccc(N3CCOCC3)c(Cl)c2)nnc1C(O)c1ccccc1 (centres undefined)	i	0.86	-2.4	6	101	-107	79
CC(Oc1ccc(Cl)cc1Cl)C(=O)N(Cc1ccco1)C1CCS(=O)(=O)C1 (centres undefined)	i	0.97	-1.8	-13	101	.	.
COc1ccc(Cl)cc1S(=O)(=O)N1CCC(O)(c2ccc(Cl)cc2)CC1	i	0.86	.	.	106	.	.
COc1ccccc1C(=O)NC(C)C(c1cccs1)N1CCN(C)CC1 (centres undefined)	i	1	-0.8	-4	112	-281	60
Cn1c(=O)[nH]c(=O)c2c1nc(N1CCCCC1)n2CCCSc1nc2ccccc2s1	i	0.85	-1.0	-4	97	-15	130
O=C(Nc1ccc(CN2CCOCC2)cc1)c1ccc(-c2cc(Cl)ccc2Cl)o1	i	1	-1.9	3	98	13	70
O=C(O)CNC(=S)N(Cc1ccc(F)cc1)C1CCCCC1	i	1.1	.	-3	108	.	.
Cc1ccc(Cn2nnnc2CN2CCC(O)(c3ccccc3F)CC2)cc1	i	1.1	-1.2	-10	100	-19	108
Cc1c(NC(=O)CCC(=O)N2CCCCC2)c(=O)n(-c2ccccc2)n1C	i	0.85	-1.0	-18	116	18	129
CC1CCN(C(=O)C(C)c2ccc([N+](=O)[O-])cc2)CC1 (centres undefined)	i	1	.	1	96	.	.
Cc1ccc(S(=O)(=O)N2CCN(Cc3nc4sc5c(c4c(=O)[nH]3)CCCC5)CC2)cc1	i	0.91	-1.5	-5	103	-8	60
COc1ccc(CCCc2n[nH]c(=S)o2)cc1	.	.	.	-2	99	23	87
O=C(O)CSc1ccc(Oc2ccc(SCC(=O)O)cc2)cc1	i	0.96	.	5	104	11	77
CCOc1ccc(-n2c(-c3ccc(OC)cc3)c[n+]3c2CCCCC3)cc1	i	0.8	0.2	5	98	.	.
CCn1c(C)nc2cc(S(N)(=O)=O)ccc21	i	0.92	.	-1	113	-27	99
CNC(=O)c1nnn(Cc2ccccc2)c1NC(=O)C(F)(F)F	i	0.99	-3.4	12	101	14	98
C/C=C/C=C\C(=O)Nc1cccc(C2=NOC3(C2)C[C@H](C(N)=O)N(C(=O)/C=C/C)C3)c1 (some centres undefined)	i	0.93	.	.	97	.	.
CCOc1cccc(C(=O)Nc2ccccc2N2CCN(C(=O)C(C)C)CC2)c1	i	0.81	-2.5	-29	97	-27	93
Cc1cc(=O)oc(C)c1C(=O)n1nc(C)c2c1C[C@@H]1[C@H]2C1(C)C	i	0.97	-1.5	5	108	.	.
COc1ccc(C2CC2C(=O)c2ccccn2)cc1 (centres undefined)	i	0.91	.	-7	91	22	76
CCc1c(O)nc(SCC(=O)Nc2nc3ccccc3s2)n(-c2ccccc2)c1=O	i	0.99	.	.	103	.	.
CN(C)Cc1nc2c(c(=O)[nH]1)C1(CCCCC1)Cc1ccccc1-2	i	0.79	0.3	-4	90	0	90
CCOC1OC(=O)C(Cl)=C1Nc1ccc(C)cc1C (centres undefined)	i	0.94	-1.1	2	48	-21	51
COc1ccccc1Oc1nc(-c2cccnc2)nc2ccccc12	i	0.92	.	3	112	-18	118
CCC(=O)Nc1c(C)n[nH]c1C	i	0.95	-1.7	1	108	48	86
C=CCOc1c(CNc2cccc(C(=O)O)c2)cccc1OC	i	0.95	-2.0	-9	103	8	132
COC(=O)c1cn(NC(=O)c2ccc([N+](=O)[O-])c(C)c2)c(=O)c2ccccc12	i	0.93	.	3	98	-321	117
CCOC(=O)Cc1csc(NC(=O)c2csc3c2CCCC3)n1	i	1.1	-0.3	-5	4	26	145

# Later entries.
SMILES	HSV replic up	HSV replic up primary fold	GALR2 agonist	PKD1 kinase inh	RGS16-Gao	Insulin prom inh	Insulin prom inh cell count
O=C(O)c1ccc2c(c1)SC1=NS(=O)(=O)CCN12	i	0.97	.	.	93	.	.
CCc1c(C)sc(NC(=O)C2CC2)c1C(=O)OC(C)C	i	1.1	1.3	3	105	30	91
Cc1nn(-c2ccccc2)c(N)c1Sc1cccc([N+](=O)[O-])c1	i	0.99	-1.8	-3	202*[activator]	24	115
CSc1ccccc1C(=O)NC1CCCCCC1	i	0.97	-2.3	-3	99	-11	137
CN(C)c1ccc(NC(=O)/C=C/c2ccccc2Cl)cc1	i	0.83	0.6	4	97	18	118
O=C(CSc1ccccc1)Nc1ccc(-c2nc3ccccc3[nH]2)cc1	i	0.74	-0.8	-8	116	.	.
Cc1nc(NCCc2ccc(S(N)(=O)=O)cc2)c2c3c(sc2n1)CCC3	i	0.95	-2.4	-3	95	38	143
Cn1nc(C(F)(F)F)c(C(=O)Nc2cccc(Cl)c2)c1Cl	i	0.71	-0.9	-8	103	.	.
O=C(c1ccc(COc2ccccc2[N+](=O)[O-])o1)N1CCCCCC1	i	0.88	-0.1	4	101	-7	112
Nc1nc(SCC(=O)NC2CCCc3ccccc32)n[nH]1 (centres undefined)	i	1	.	-3	87	.	.
Cc1ccc2c(c1)c(CC(=O)Nc1ccc(F)cc1)c(C(=O)O)n2C	i	0.95	-0.8	0	99	18	52
CCOC(=O)COc1ccc2c(=O)c(-c3ccccc3)coc2c1	i	0.96	.	.	100	.	.
COC(=O)CN=C1OC(=O)N2C(=O)C3=C4[C@@H](C[C@H]5C(=O)N(c6ccccc6)C(=O)[C@H]5[C@H]4[C@@]12Cc1ccccc1)[C@H]1C(=O)N(c2ccccc2)C(=O)[C@H]1[C@H]3C	i	1.1	.	.	91	.	.
C=CCn1c(O)c(C(CC)=NCc2cccnc2)c(=O)[nH]c1=O	i	0.7	-1.4	-3	104	8	186
O=c1cc(NCc2ccco2)c2ccccc2o1	i	0.98	-0.8	1	98	-64	147
CC1=NS(=O)(=O)c2cc(Cl)ccc2N1	i	0.92	-1.6	-4	104	-27	105
CCNc1nc(NC(C)C)nc(Oc2ccc(=O)n(C)n2)n1	i	1.1	.	0	104	.	.
Cc1nnc(NC(=O)c2ccccc2-c2ccccc2C(=O)O)s1	i	0.71	.	.	71	.	.
Cc1c(C2CC(=O)N(c3ccccc3)C2=O)[nH]n(-c2ccccc2)c1=O (centres undefined)	i	0.95	-2.5	-8	120	.	.
NC(=O)COc1ccc2c3c(c(=O)oc2c1)CCCCC3	i	0.87	-1.5	-6	102	-45	74

# Overlap with the part before: 5 entries, then new ones.
SMILES	HSV replic up	HSV replic up primary fold	GALR2 agonist	PKD1 kinase inh	RGS16-Gao	Insulin prom inh	Insulin prom inh cell count
CC1=NS(=O)(=O)c2cc(Cl)ccc2N1	i	0.92	-1.6	-4	104	-27	105
CCNc1nc(NC(C)C)nc(Oc2ccc(=O)n(C)n2)n1	i	1.1	.	0	104	.	.
Cc1nnc(NC(=O)c2ccccc2-c2ccccc2C(=O)O)s1	i	0.71	.	.	71	.	.
Cc1c(C2CC(=O)N(c3ccccc3)C2=O)[nH]n(-c2ccccc2)c1=O (centres undefined)	i	0.95	-2.5	-8	120	.	.
NC(=O)COc1ccc2c3c(c(=O)oc2c1)CCCCC3	i	0.87	-1.5	-6	102	-45	74
CN(C)C(=O)c1ccc(-n2cnc3ccccc3c2=O)cc1	i	0.95	.	-4	102	.	.
CN(C)/C=N/c1cnc(C(=O)c2ccc(Cl)cc2)n1C	i	0.79	-1.7	-10	98	-13	135
S=C1NCCOCCOCCOCCOCCNC(=S)N2CCOCCOCCN1CCOCC2	i	0.91	.	-5	101	.	.
CS(=O)(=O)N1CCCC(C(=O)N2CCN(c3cccc(Cl)c3)CC2)C1 (centres undefined)	i	0.97	.	-7	100	.	.
Cn1cnc([N+](=O)[O-])c1Sc1ncccc1N	i	0.96	-0.7	-1	184	-10	131
CCc1cc(-c2n[nH]c(CCC(=O)O)c2-c2nc3ccccc3n2C)c(O)cc1O	i	0.96	.	0	105	12	118
Cc1ccc(NC(=O)C/C(N)=N/O)cc1C	i	0.95	-2.3	13	98	.	.
CSc1ccccc1C(=O)C1CCCN(C(=O)c2csnn2)C1 (centres undefined)	i	0.96	.	6	94	10	144
CCN1CC=C2C(C#N)=C(N)C(C#N)(C#N)C(c3cc(Cl)ccc3Cl)C2C1 (centres undefined)	.	.	4.5	1	95	.	.
O=C(c1cc(COc2ccc(F)cc2F)on1)N1CCSCC1	i	0.97	.	6	106	0	84
O=C(/C=C/c1ccccc1[N+](=O)[O-])OC1CCCCC1=O (centres undefined)	i	0.88	.	-5	96	-83	67
Cc1cc(C)n(CCN(C)Cc2cn[nH]c2-c2ccc(F)cc2F)n1	i	0.98	.	6	97	.	.
CCCCC(=O)Nc1ccc(F)c(Cl)c1	i	0.89	-2.7	0	96	29	59
Cn1c(=O)c(Oc2ccc(F)cc2)c(O)c2ccccc21	i	0.95	-0.2	-9	96	64*	81*
COc1ccc(NC(=O)C/C(C)=N/NC(=O)C(=O)Nc2cccc(Cl)c2C)c(OC)c1	i	1	.	-7	111	7	95
CCCOc1ccc(NC(=O)c2c(-c3ccccc3)noc2C)cc1	i	0.95	-0.8	3	106	.	.
CSc1ccccc1NC(=O)Cn1c(-c2cscn2)nc2ccccc21	i	0.78	-1.1	-5	101	-50	146
